Source: PubChem BioAssay (Broad Institute)
A1 inh = blocks A1 activity; MEF A1-2A-BIM cells, caspase-Glo luminescence, 3 h; percent of clofoctol signal, DMSO as zero; caspase activation, % (concentration not given with the values); AID 2241; 21,000 compounds, 0.51% hits;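 active = most replicate scores above 10, or exactly half above 10 with mean activity above 10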;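 note: effector caspase 3 and 7 activity cleaving a DEVD luciferin substrate; 50 nL library stock added to about 30 µL; numbers are from one replicate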
BJeLR viab HTS = lowers viability of BJeLR cells | BJeLR fibroblasts viability, CellTiterGlo ATP luminescence, 48 h; HRASV12, hTERT and SV40 LT/ST transformed | viability loss activity score, % (no concentration beside the values) | 30,000 compounds, 0.64% hits; in the data active = viability loss activity score above about 50%; about a fifth of its hits are not listed in these tables;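 note: higher score means fewer live cells and less ATP luminescence; stock transfer was 50 or 100 nL into about 30 µL; 0% = vehicle wells and 100% = a reference killing control; one replicate is shown; the record names a cut of 85%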
Numbers without * were called inactive; / = not tested or not shown.

Sequence of screens: A1 inh | BJeLR viab HTS
C[C@H](CO)N1C[C@H](C)[C@H](CN(C)C(=O)Nc2ccc(C(F)(F)F)cc2)Oc2c(NC(=O)Nc3ccc(C(F)(F)F)cc3)cccc2C1=O
  / | 3.8
CCOC(=O)c1cc2c(c(CSc3nc4ccccc4c(=O)n3Cc3cccs3)c1)OCOC2
  0.5 | -4.0
Cc1cc(C(=O)Nc2cccc3c2O[C@H](CN(C)S(=O)(=O)c2ccccc2)[C@@H](C)CN([C@H](C)CO)C3=O)n(C)n1
  / | 7.5
C[C@@H]1CN([C@H](C)CO)C(=O)c2cc(NC(=O)NC3CCCCC3)ccc2O[C@@H]1CN(C)C(=O)Nc1ccccc1
  0.5 | -1.4
CCN(CC)C(=O)C1c2ccccc2Oc2ccccc21
  0.3 | 2.7
C[C@H](CO)N1C[C@H](C)[C@H](CN(C)C(=O)Nc2ccc3c(c2)OCO3)Oc2c(NS(C)(=O)=O)cccc2C1=O
  / | -4.0
Cc1ccc(S(=O)(=O)NC(=NC2CCCCC2)c2ccccc2)cc1
  1.0 | -0.8
N#Cc1ccccc1NC(=O)CN1C(=O)c2ccccc2C1=O
  0.1 | -0.6
COc1ccc(S(=O)(=O)Nc2ccc3c(c2)C(=O)N([C@H](C)CO)C[C@H](C)[C@H](CN(C)Cc2ccc(-c4ccccc4)cc2)O3)cc1
  0.1 | -5.5
Cn1c(=N)n(CCCOc2ccc(F)cc2)c2ccccc21
  1.0 | 3.4
C[C@@H]1CN([C@H](C)CO)C(=O)c2cc(NC(=O)Cc3cn(C)c4ccccc34)ccc2O[C@@H]1CN(C)C
  0.6 | 7.2
CC1=CC(=O)CC2C1(C)CCC(C)C2(C)CC/C(C)=C\C(=O)O (centres undefined)
  0.0 | -4.3
O=C(NCC12CC3CC(CC(C3)C1)C2)N1CCN(CCO)CC1
  1.1 | 5.5
COC(=O)c1[nH]nc2c1C(=O)N(Cc1ccccc1)C2=O
  / | -0.7
C[C@H](CO)N1C[C@H](C)[C@H](CN(C)Cc2ccccc2)Oc2ccc(N(C)C)cc2C1=O
  -0.3 | -4.7
COc1ccc(NC(=O)Nc2cccc3c2O[C@H](CN(C)Cc2ccc(-c4ccccc4)cc2)[C@@H](C)CN([C@H](C)CO)C3=O)cc1
  / | 1.7
C[C@H](CO)N1C[C@H](C)[C@@H](CN(C)CC2CC2)Oc2ccc(NS(=O)(=O)c3ccccc3)cc2C1=O
  0.0 | 2.4
Cc1noc(C)c1NC(=O)N(C)C[C@H]1Oc2c(NC(=O)c3ccc(-c4nccs4)cc3)cccc2C(=O)N([C@H](C)CO)C[C@@H]1C
  / | 0.9
C[C@@H]1CN([C@@H](C)CO)C(=O)c2cccc(NC(=O)C3CCCCC3)c2O[C@H]1CN(C)S(=O)(=O)c1ccc(F)cc1
  / | -8.5
N#C/C(=C\c1ccc(O)c(O)c1)C(=O)NCCCNC(=O)/C(C#N)=C/c1ccc(O)c(O)c1
  -1.6 | 3.9

Remaining list, next part:
Sequence of screens: A1 inh | BJeLR viab HTS
CC(=O)O[C@H]1CC[C@H](C)[C@@]2(C)[C@H](OC(C)=O)c3c(C)coc3C(=O)[C@H]12
  1.4 | 3.7
O=C(CCc1ccc(O)cc1)CC(O)CCc1ccc(O)c(O)c1 (centres undefined)
  -0.8 | -1.6
Cc1ccc(S(=O)(=O)NC(=O)NCC2CCN(C(=O)OC(C)(C)C)CC2)cc1
  0.0 | 2.1
Cc1ccc(S(=O)(=O)Nc2cccc3c2O[C@@H](CN(C)Cc2ccc(-c4ccccc4)cc2)[C@@H](C)CN([C@H](C)CO)C3=O)cc1
  / | -3.2
C[C@@H]1CN([C@H](C)CO)C(=O)c2cccc(NS(=O)(=O)c3cccs3)c2O[C@@H]1CN(C)CC1CCCCC1
  / | -3.9
O=C(NC(=O)N(Cc1ccccc1)C1CC2CCC1C2)c1c(Cl)cccc1Cl (centres undefined)
  0.6 | 4.5
CC(N=C1CC(C)(C)CC(=O)/C1=C(O)/C=C/c1ccccc1)C(=O)O (centres undefined)
  0.3 | -4.5
C[C@@H]1CN([C@H](C)CO)C(=O)c2cccc(NS(C)(=O)=O)c2O[C@@H]1CN(C)Cc1ccc(-c2ccccc2)cc1
  / | 3.1
Cc1noc(C)c1NC(=O)Nc1cccc2c1O[C@H](CN(C)Cc1ccccc1)[C@@H](C)CN([C@H](C)CO)C2=O
  / | -2.4
C[C@@H]1CN([C@@H](C)CO)C(=O)c2cc(NC(=O)Nc3cccc4ccccc34)ccc2O[C@@H]1CN(C)Cc1ccc(Cl)c(Cl)c1
  0.5 | 15.1
CCc1ccc(NC(=S)NC(=O)c2cccs2)cc1
  -1.1 | -4.0
C[C@@H]1CN([C@@H](C)CO)C(=O)c2cccc(NC(=O)c3nc4ccccc4s3)c2O[C@H]1CN(C)Cc1ccc2c(c1)OCO2
  / | -0.7
Cc1noc(C)c1S(=O)(=O)Nc1cccc2c1O[C@H](CN(C)Cc1ccccc1)[C@H](C)CN([C@H](C)CO)C2=O
  / | -2.4
Cc1ccc(S(=O)(=O)N(C)C[C@@H]2Oc3c(NS(C)(=O)=O)cccc3C(=O)N([C@@H](C)CO)C[C@H]2C)cc1
  / | 4.7
C[C@@H]1CN([C@H](C)CO)C(=O)c2cc(NC(=O)CCN3CCOCC3)ccc2O[C@@H]1CN(C)C(=O)Nc1cccc2ccccc12
  0.7 | -3.5
CC(C)CCNC(=O)c1cnn2c(C(F)(F)F)cc(-c3ccco3)nc12
  -1.6 | -2.5
CN1CCN(CC(O)COCCC23CC4CC(CC(C4)C2)C3)CC1 (centres undefined)
  -0.5 | 5.1
C[C@@H]1CN([C@H](C)CO)C(=O)c2cccc(NC(=O)NC3CCCCC3)c2O[C@@H]1CN(C)CC1CC1
  / | -1.5
C[C@H]1CN([C@@H](C)CO)C(=O)c2cc(NS(=O)(=O)c3cn(C)cn3)ccc2O[C@@H]1CN(C)C(=O)NC1CCCCC1
  0.7 | -3.2
C=CCSc1n[nH]c(-c2ccc(C(F)(F)F)cc2)n1
  0.0 | -0.2

(list continues)
Sequence of screens: A1 inh | BJeLR viab HTS
C[C@@H]1CN([C@@H](C)CO)C(=O)c2cccc(NC(=O)Nc3ccc(F)cc3)c2O[C@H]1CN(C)Cc1ccc(C(F)(F)F)cc1
  / | -0.6
C[C@@H]1CN([C@@H](C)CO)C(=O)c2cc(N(C)C)ccc2O[C@@H]1CN(C)Cc1ccc(Cl)c(Cl)c1
  0.0 | 3.6
CCCCOc1ccc(C(=O)CCN2CCCCC2)cc1
  0.3 | -4.1
CNC[C@H]1Oc2c(NC(=O)c3cnccn3)cccc2C(=O)N([C@@H](C)CO)C[C@H]1C
  / | -2.1
O=C(CSc1nnc(C2COc3ccccc3O2)o1)N1CCCCC1 (centres undefined)
  / | -5.2
CCCCCCCCCCC/C=C\C(C)(C)/C=C\CCCC(=O)O
  0.2 | -0.4
CCOC(=O)N1CCC(NC(=O)c2c(C)nn(-c3ccccc3)c2-n2cccc2)CC1
  0.9 | -8.7
CC1=Nc2ccccc2/C1=C\c1sc(=O)n(-c2ccccc2)c1O
  / | -1.3
C[C@H](CO)N1C[C@H](C)[C@@H](CN(C)S(=O)(=O)c2cccs2)Oc2ccc(NC(=O)CCN3CCOCC3)cc2C1=O
  0.1 | -0.6
Cc1noc(C)c1S(=O)(=O)Nc1ccc2c(c1)C(=O)N([C@@H](C)CO)C[C@@H](C)[C@@H](CN(C)C(=O)NC1CCCCC1)O2
  0.5 | 1.7
N#Cc1sc2nc3ccccc3n2c1/N=C/N1CCOCC1
  -0.5 | 2.4
COc1ccc(NCc2ccccc2O)cc1
  / | -3.1
Cc1ccnc(NC(=O)CCNS(=O)(=O)c2ccc3c(c2)c(=O)n(C)c(=O)n3C)c1
  / | 3.3
Cc1ccc(S(=O)(=O)Nc2cccc3c2O[C@@H](CN(C)Cc2ccccc2)[C@@H](C)CN([C@@H](C)CO)C3=O)cc1
  / | 1.8
CC(=O)NC(C)c1ccccc1 (centres undefined)
  -0.1 | -3.1
O=C1CSc2ccc(C(=O)N3CCN(c4cccc(C(F)(F)F)c4)CC3)cc2N1
  -0.2 | 29.0
COc1cc2ccc(=O)oc2c(O[C@@H]2O[C@H](CO)[C@@H](O)[C@H](O)[C@H]2O)c1O
  -0.1 | -1.2
Cc1noc(C)c1NC(=O)Nc1cccc2c1O[C@@H](CN(C)S(=O)(=O)c1ccccc1)[C@H](C)CN([C@H](C)CO)C2=O
  / | -0.4
O=C(c1ccccc1)c1nn(-c2ccc(C(F)(F)F)cc2)ccc1=O
  0.5 | 4.0
Cc1cc(C(=O)Nc2cccc3c2O[C@H](CN(C)S(C)(=O)=O)[C@@H](C)CN([C@@H](C)CO)C3=O)n(C)n1
  / | 2.6

More entries follow:
Sequence of screens: A1 inh | BJeLR viab HTS
CC(CNC(=S)Nc1cccc(Cl)c1)CSc1ccc(Cl)cc1 (centres undefined)
  0.3 | 5.6
C[C@@H]1CN([C@@H](C)CO)C(=O)c2cc(NC(=O)CCN3CCOCC3)ccc2O[C@H]1CN(C)S(C)(=O)=O
  0.3 | 6.4
CC(NC(=O)Cn1cc(C(=O)C2CCCCC2)c2ccccc21)c1ccccc1 (centres undefined)
  / | 9.5
C[C@]12CC[C@H](O)CC1=CCC1C2CC[C@@]2(C)C1CC[C@@H]2C(=O)CO (some centres undefined)
  0.8 | 1.3
COc1ccc(NC(=O)N(C)C[C@H]2Oc3ccc(NS(=O)(=O)c4ccc(C)cc4)cc3C(=O)N([C@H](C)CO)C[C@@H]2C)cc1
  -0.3 | 0.4
COc1ccc(S(=O)(=O)N(C)C[C@H]2Oc3ccc(NC(=O)NC4CCCCC4)cc3C(=O)N([C@@H](C)CO)C[C@H]2C)cc1
  1.5 | 8.4
C[C@@H]1CN([C@@H](C)CO)C(=O)c2cccc(NC(=O)C3CCCCC3)c2O[C@H]1CN(C)C(=O)Nc1ccc(C(F)(F)F)cc1
  / | -5.3
CC(=O)NCCn1c(SCC(=O)NCc2ccccc2)nc2ccccc2c1=O
  0.7 | -2.9
O=C(CSc1nnnn1Cc1ccccc1)Nc1ccccc1Oc1ccccc1
  0.1 | -0.5
CCCC1CCC(c2ccc(OC(=O)c3cccnc3)cc2)CC1 (centres undefined)
  0.1 | -7.9
COC(=O)[C@@]1(C)CC[C@]2(C(=O)O[C@@H]3O[C@H](CO)[C@@H](O)[C@H](O)[C@H]3O)CC[C@]3(C)C(=CCC4[C@@]5(C)C[C@H](O)[C@H](O[C@@H]6OC[C@@H](O)[C@H](O)[C@H]6O)[C@@](C)(CO)C5CC[C@]43C)[C@@H]2C1 (some centres undefined)
  -0.1 | -1.2
CCn1cc(C(=O)NCCC2=CCCCC2)c2cc(OC)c(OC)cc2c1=O
  / | 0.5
CCSC1=N/C(=C\c2ccc(C)s2)C(=O)S1
  0.5 | 6.3
CC(C)CNc1ncnc2c1sc1nc(C(C)C)c3c(c12)CC(C)(C)OC3
  / | -7.9
COCCn1c(-c2ccc(C(C)(C)C)cc2)n[nH]c1=S
  0.1 | 1.5
C[C@@H]1CN([C@@H](C)CO)C(=O)c2cc(NC(=O)CCCCCC(=O)Nc3ccccc3N)ccc2O[C@@H]1CN(C)C(=O)Nc1ccccc1
  / | -3.7
CCOc1ccc(-c2nnc(N3CCCCC3)c3ccccc23)cc1
  -0.6 | 0.7
Cc1cc(C(=O)Nc2cccc3c2O[C@@H](CN(C)Cc2ccc(Oc4ccccc4)cc2)[C@H](C)CN([C@H](C)CO)C3=O)n(C)n1
  / | 2.6
COc1ccc(S(=O)(=O)Nc2ccc3c(c2)C(=O)N([C@@H](C)CO)C[C@H](C)[C@H](CN(C)C(=O)Nc2ccc(C(F)(F)F)cc2)O3)cc1
  0.4 | -2.6
CCOC(=O)c1ccc(N=Cc2ccc(Cl)cc2)cc1
  0.6 | -9.2

The closing six entries of the part before are carried over, then new ones follow:
Sequence of screens: A1 inh | BJeLR viab HTS
COCCn1c(-c2ccc(C(C)(C)C)cc2)n[nH]c1=S
  0.1 | 1.5
C[C@@H]1CN([C@@H](C)CO)C(=O)c2cc(NC(=O)CCCCCC(=O)Nc3ccccc3N)ccc2O[C@@H]1CN(C)C(=O)Nc1ccccc1
  / | -3.7
CCOc1ccc(-c2nnc(N3CCCCC3)c3ccccc23)cc1
  -0.6 | 0.7
Cc1cc(C(=O)Nc2cccc3c2O[C@@H](CN(C)Cc2ccc(Oc4ccccc4)cc2)[C@H](C)CN([C@H](C)CO)C3=O)n(C)n1
  / | 2.6
COc1ccc(S(=O)(=O)Nc2ccc3c(c2)C(=O)N([C@@H](C)CO)C[C@H](C)[C@H](CN(C)C(=O)Nc2ccc(C(F)(F)F)cc2)O3)cc1
  0.4 | -2.6
CCOC(=O)c1ccc(N=Cc2ccc(Cl)cc2)cc1
  0.6 | -9.2
O=C(NCc1ccccc1)NS(=O)(=O)c1ccccc1Cl
  0.7 | 1.5
C[C@@H]1CN([C@H](C)CO)C(=O)c2cccc(NC(=O)c3nc4ccccc4s3)c2O[C@@H]1CN(C)Cc1ccc(-c2ccccc2)cc1
  / | -2.1
COc1ccc(S(=O)(=O)Nc2ccc3c(c2)C(=O)N([C@H](C)CO)C[C@H](C)[C@@H](CN(C)S(=O)(=O)c2ccc(OC)cc2)O3)cc1
  0.2 | -0.9
O=C(c1cccs1)N1CCN(c2cc(C(F)(F)F)nc3ccccc23)CC1
  -0.2 | 1.6
C[C@@H]1CN([C@H](C)CO)C(=O)c2cccc(NC(=O)Nc3ccc(C(F)(F)F)cc3)c2O[C@H]1CN(C)C(=O)Nc1ccccc1
  / | -1.8
CNC[C@H]1Oc2c(NC(=O)NC(C)C)cccc2C(=O)N([C@H](C)CO)C[C@@H]1C
  / | -9.5

Reprinted at random: two entries already listed.
Sequence of screens: A1 inh | BJeLR viab HTS
C[C@@H]1CN([C@@H](C)CO)C(=O)c2cccc(NC(=O)C3CCCCC3)c2O[C@H]1CN(C)S(=O)(=O)c1ccc(F)cc1
  / | -8.5
CC(=O)NCCn1c(SCC(=O)NCc2ccccc2)nc2ccccc2c1=O
  0.7 | -2.9

Some of the compounds tested (hit frequency here may not be typical).
